TNAP act hiacc: TNAP activators at high phosphate acceptor level, primary screen, biochemical, luminescence, uHTS; Alkaline phosphatase, tissue-nonspecific isozyme (Homo sapiens), P05186; purified TNAP, CDP-star luminescence, 1 M DEA, 30 min; hits give high values; 0 = EDTA background, 1 = DMSO-only activity; activation factor at 20 µM; 200,000 tested, under 10 active;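 active = activation factor at least 2 at 20 µM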
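system = human TNAP | amount = enzyme diluted 1/800 final | reagent = 100 µM CDP-star substrate | signal = luminescent substrate turnover signal | dosing = one dose, 20 µM | benchmarks = EDTA negative control, DMSO positive control | measure = activation factor | timing = 30 min reaction, room temperature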
STAT1 inh: STAT1 signaling inhibitors, primary screen, cell-based, HTS, luciferase reporter | NIH 3T3 STAT1-luciferase reporter, IFN-gamma, luminescence | inhibition, % at 5.5 µM | hit rate 0.35% among 200,000 | AID 920, 2007;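 active = inhibition above a set limit, the mean inhibition across all tested compounds plus 3 SD, cut at about 34% in these data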;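 note: 0% = IFN-gamma with DMSO and 100% = IFN-gamma with 300 µM nifuroxazide; values of inactives mirror those of a sister screen read the other way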
bIAP activator: bovine intestinal alkaline phosphatase activators, primary screen, biochemical, bovine IAP, CDP-star luminescence; alkaline phosphatase, intestinal [Bos taurus]; purified bovine IAP, 30 min; hits give high values; fold of DMSO-control signal, blank-subtracted; activation factor at 20 µM; hit rate 0.17% among 200,000; AID 1016, 2008;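 active = activation factor of 2 or more at 20 µM, a signal rise over negative controls twice the positive control's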
bIAP inh: bovine intestinal alkaline phosphatase inhibitors, primary screen, selectivity assay for TNAP inhibitor project, biochemical, bovine IAP, CDP-star luminescence | alkaline phosphatase, intestinal [Bos taurus] | inhibition, % at 20 µM | 190,000 tested, under 10 active | purified bovine IAP, 30 min;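 active = over 50% inhibition of intestinal alkaline phosphatase at 20 µM in the single-dose screen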
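Incubation: 30 min reaction at room temperature / Material: purified bovine intestinal alkaline phosphatase (IAP) enzyme / Input: enzyme at 1/65,000,000 dilution / Dosing: 20 µM single dose / Signal: CDP-star luminescence signal / Reagent: CDP-star chemiluminescent phosphatase substrate, 30 µM final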
STAT3 act: IL-6 driven STAT3 reporter potentiators, primary screen, U3A cells, luciferase, luminescence, MLSCN library; IL-6 STAT3-luciferase reporter; 100% = signal with IL-6 EC80 alone; AID 871, 2007; activation (% of control), % at 5.6 µM; hit rate 0.91% among 190,000;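 active = activation above the screen-wide mean of compound activation plus 3 SD, cut at about 130% in these data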;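 note: 0% = background luminescence of wells with medium and substrate only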
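Test system: STAT3-luciferase reporter U3A cells; Detection: reporter luminescence signal; Times: 1 h compound pre-exposure, 6 h IL-6 stimulation, 37 °C; Benchmarks: IL-6-only high control; Also added: IL-6 stimulus at 33 ng/mL final.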
ROMK primary: ROMK potassium channel modulators, primary screen, cell-based, thallium flux, MLSMR library. ATP-sensitive inward rectifier potassium channel 1 (Homo sapiens), P48048. Tet-inducible ROMK, thallium flux fluorescence; actives lie on both sides. B-score at 10 µM. hit rate 2% among 130,000;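 active = signal ratio slope over the read window, or its plate-corrected B-score, at least 3 SD from the plate mean, either direction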;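 note: B-score of the F/F0 ratio slope over 7 to 12 s after thallium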
Target sequence (P48048 whole entry, looked up): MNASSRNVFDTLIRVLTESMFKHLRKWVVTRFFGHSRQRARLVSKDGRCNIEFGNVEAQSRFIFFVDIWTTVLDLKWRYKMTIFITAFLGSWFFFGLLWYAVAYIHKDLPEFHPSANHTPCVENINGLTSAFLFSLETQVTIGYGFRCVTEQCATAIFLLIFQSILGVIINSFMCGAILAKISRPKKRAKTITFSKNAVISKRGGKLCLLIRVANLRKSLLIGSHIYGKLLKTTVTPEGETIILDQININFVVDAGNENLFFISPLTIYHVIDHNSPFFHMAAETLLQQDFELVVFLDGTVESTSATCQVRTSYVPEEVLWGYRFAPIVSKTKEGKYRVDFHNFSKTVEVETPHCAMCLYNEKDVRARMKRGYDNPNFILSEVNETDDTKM
* = called active by the depositor; nt = no result given; & = joins results of further samples. Some of the compounds tested (hit frequency here may not be typical).

SMILES | TNAP act hiacc | STAT1 inh | bIAP activator | bIAP inh | STAT3 act | ROMK primary
CC(=O)[C@H]1CC[C@H]2[C@@H]3CCC4=CC(=O)CC[C@]4(C)[C@H]3CC[C@]12C | 1&1 | 1 | 0.9&0.9 | 9&6 | 93 | nt
CN(C)C(=O)C(CCN1CCC(O)(c2ccc(Cl)cc2)CC1)(c1ccccc1)c1ccccc1 | 1 | -9 | 0.9 | 6 | 103 | nt
CNCCC(Oc1ccc(C(F)(F)F)cc1)c1ccccc1 (stereo not given) | 1 | 0 | 0.3 | nt | 105 | nt
CCN(CC)CC#CCOC(=O)C(O)(c1ccccc1)C1CCCCC1 (stereo not given) | 1 | 0 | 0.8 | 16 | 107 | nt
CC(=O)SC1CC2=CC(=O)CCC2(C)C2CCC3(C)C(CCC34CCC(=O)O4)C12 (stereo not given) | 0.7 | 15 | 1.2 | -22 | 100 | 0.48
CC1(C)S[C@@H]2[C@H](NC(=O)[C@H](N)c3ccc(O)cc3)C(=O)N2[C@H]1C(=O)O | 1 | -5 | 1.1 | -7 | 99 | nt
CC(=O)N[C@@H](CS)C(=O)O | 1 | 1 | 0.9 | 11 | 90 | -0.56
C(=C\c1ccccc1)/CN1CCN(C(c2ccccc2)c2ccccc2)CC1 | 1 | -7 | 1.1 | -7 | 100 | nt
Cn1nnnc1SCC1=C(C(=O)O)N2C(=O)[C@@H](NC(=O)[C@H](O)c3ccccc3)[C@H]2SC1 | 1 | -6 | 0.9 | 6 | 106 | 0.3
CC(=O)NS(=O)(=O)c1ccc(N)cc1 | 1 | 0 | 1 | 4 | 100 | nt
Cc1ccc2cc(C)c3nnc(SCC(=O)N4CCN(C(=O)c5ccco5)CC4)n3c2c1 | 1 | 1 | 0.9 | 6 | 94 | 0.05
CCN1CCC[C@H]1CNC(=O)c1c(O)c(Cl)cc(Cl)c1OC | 1 | nt | 0.9 | 8 | nt | nt
CC(C)NC[C@@H](O)c1ccc(O)c(O)c1 | 0.9 | 6 | 0.9 | 11 | 97 | nt
NCCc1cnc[nH]1 | 1 | -1&6 | 1 | 4 | 121&116 | nt
CCn1cc(C(=O)O)c(=O)c2cc(F)c(N3CCN(C)CC3)cc21 | 1 | -6 | 1.2 | -23 | 110 | -0.034
C[C@H]1O[C@H]1P(=O)(O)O | 1 | -5&-2 | 0.9&0.9 | 10&13 | 100&104 | nt
CC(C)[N+]1(C)[C@@H]2CC[C@H]1CC(OC(=O)C(CO)c1ccccc1)C2 (stereo not given in full) | 1 | 6 | 0.9 | 7 | 97 | nt
Cc1c(C(=O)NN2CCCCC2)nn(-c2ccc(Cl)cc2Cl)c1-c1ccc(I)cc1 | 1.1 | nt | 1.1 | -13 | nt | nt
COc1cccc(Nc2nc(NCC3CCCO3)c3ccccc3n2)c1 (stereo not given) | 1 | 16 | 0.9 | 15 | 80 | -1.6
CCN(CC)C(=S)SSC(=S)N(CC)CC | 1 | 1 | 0.8 | 15 | 96 | nt

Three compounds from above, sorted by length of the SMILES, ascending:
SMILES | TNAP act hiacc | STAT1 inh | bIAP activator | bIAP inh | STAT3 act | ROMK primary
CC(=O)N[C@@H](CS)C(=O)O | 1 | 1 | 0.9 | 11 | 90 | -0.56
COc1cccc(Nc2nc(NCC3CCCO3)c3ccccc3n2)c1 (stereo not given) | 1 | 16 | 0.9 | 15 | 80 | -1.6
Cc1ccc2cc(C)c3nnc(SCC(=O)N4CCN(C(=O)c5ccco5)CC4)n3c2c1 | 1 | 1 | 0.9 | 6 | 94 | 0.05

(listing goes on)
SMILES | TNAP act hiacc | STAT1 inh | bIAP activator | bIAP inh | STAT3 act | ROMK primary
O=C(O)c1ccccc1O | 1 | 4 | 0.9 | 15 | 92 | nt
CCCNCC(O)COc1ccccc1C(=O)CCc1ccccc1 (stereo not given) | 1 | 6 | 1.1 | -10 | 101 | nt
CCCSc1ccc2nc(NC(=O)OC)[nH]c2c1 | 1 | -31 | 0.9 | 6 | 130 | nt
CC(=O)OCC(=O)[C@@]1(O)CC[C@H]2[C@@H]3CCC4=CC(=O)C=C[C@]4(C)[C@H]3[C@@H](O)C[C@@]21C | 1 | 6 | 380* | nt | 91 | nt
CNC[C@H](O)c1cccc(O)c1 | 1 | 0 | 1 | 4 | 92 | nt
O=C(NCC1CCCCN1)c1cc(OCC(F)(F)F)ccc1OCC(F)(F)F (stereo not given) | 1.1 | -6 | 0.8 | 17 | 103 | nt
NCCCC(N)(C(=O)O)C(F)F (stereo not given) | 1 | 2 | 1.1 | -15 | 95 | nt
O=S(=O)(Nc1nnc(-c2ccccc2)s1)c1ccc(Cl)cc1 | 1.1 | -16 | 1 | 5 | 98 | -0.98
NC(=O)OCC(COC(N)=O)c1ccccc1 | 1 | -1 | 1 | 1 | 105 | -0.35
O=C1CN(/N=C/c2ccc([N+](=O)[O-])o2)C(=O)N1 | 1 | -8 | 0.9 | 7 | 101 | nt

13 compounds out of the list, ordered by formula weight, rising.
SMILES | TNAP act hiacc | STAT1 inh | bIAP activator | bIAP inh | STAT3 act | ROMK primary
C[C@H]1O[C@H]1P(=O)(O)O | 1 | -5&-2 | 0.9&0.9 | 10&13 | 100&104 | nt
CNC[C@H](O)c1cccc(O)c1 | 1 | 0 | 1 | 4 | 92 | nt
NCCCC(N)(C(=O)O)C(F)F (stereo not given) | 1 | 2 | 1.1 | -15 | 95 | nt
O=C1CN(/N=C/c2ccc([N+](=O)[O-])o2)C(=O)N1 | 1 | -8 | 0.9 | 7 | 101 | nt
CCCSc1ccc2nc(NC(=O)OC)[nH]c2c1 | 1 | -31 | 0.9 | 6 | 130 | nt
CCN(CC)C(=S)SSC(=S)N(CC)CC | 1 | 1 | 0.8 | 15 | 96 | nt
CC(C)[N+]1(C)[C@@H]2CC[C@H]1CC(OC(=O)C(CO)c1ccccc1)C2 (stereo not given in full) | 1 | 6 | 0.9 | 7 | 97 | nt
CCn1cc(C(=O)O)c(=O)c2cc(F)c(N3CCN(C)CC3)cc21 | 1 | -6 | 1.2 | -23 | 110 | -0.034
CCCNCC(O)COc1ccccc1C(=O)CCc1ccccc1 (stereo not given) | 1 | 6 | 1.1 | -10 | 101 | nt
COc1cccc(Nc2nc(NCC3CCCO3)c3ccccc3n2)c1 (stereo not given) | 1 | 16 | 0.9 | 15 | 80 | -1.6
O=S(=O)(Nc1nnc(-c2ccccc2)s1)c1ccc(Cl)cc1 | 1.1 | -16 | 1 | 5 | 98 | -0.98
O=C(NCC1CCCCN1)c1cc(OCC(F)(F)F)ccc1OCC(F)(F)F (stereo not given) | 1.1 | -6 | 0.8 | 17 | 103 | nt
Cc1c(C(=O)NN2CCCCC2)nn(-c2ccc(Cl)cc2Cl)c1-c1ccc(I)cc1 | 1.1 | nt | 1.1 | -13 | nt | nt

High-throughput results deposited in PubChem by several laboratories.
